High-throughput results deposited in PubChem by Broad Institute.
Vaccinia inh: blocks a specific stage of Vaccinia orthopoxvirus infection. Vaccinia-infected cells, mCherry/Venus stage reporter fluorescence; active compounds read low; some inactives read as strong as hits. 89,000 tested, 0.01% active. activity change (mCherry), % (test concentration not listed);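 active = mCherry past -33% and 40 or more points under the early reporter, replicates agreeing; inconclusive = past -33% without that gap or agreement; tested in A549 cells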;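 note: scaled between vehicle wells and reference inhibitor wells; 23 nL library stock went into each well; one replicate is shown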
Vaccinia inh Venus: further read-out of Vaccinia inh, marked with its call; activity change (Venus), %; measured here: Venus reporter, other viral stage;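 negative = less Venus signal; first of two replicates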
Numbers without * were called inactive; ? = inconclusive; / = not tested or not shown. Only part of the results is shown; the hit share may differ from the screen's.

Values run as follows: Vaccinia inh	Vaccinia inh Venus
O=C(C1CCCC1)N1CC2(C1)[C@@H](c1ccccc1)[C@H](CO)N2CCC(F)(F)F
  4.9	5.7
N#C[C@@H]1[C@H](c2ccccc2)[C@@H](CO)N1C(=O)c1ccc2c(c1)OCO2
  18.0	16.6
COc1ccccc1C(=O)Nc1ccc2c(c1)C(=O)N(C)C[C@@H](OC)[C@@H](C)CN[C@H](C)CO2
  3.4	2.9
C[C@@H]1CN([C@H](C)CO)C(=O)c2cc(C#Cc3ccc(F)cc3)cnc2O[C@@H]1CN(C)Cc1ccccn1
  -14.8	-9.8
COCC(=O)Nc1ccc2c(c1)C(=O)N(C)C[C@@H](OC)[C@H](C)CN(C)[C@@H](C)CO2
  6.2	-0.8
O=C(Nc1ccccc1F)N[C@H]1CC[C@H](CCNC(=O)C2CCC2)O[C@H]1CO
  -2.9	0.2
CN1CCN(C(=O)C[C@@H]2C[C@H]3c4cc(NS(C)(=O)=O)ccc4O[C@H]3[C@@H](CO)O2)CC1
  10.6	17.2
C[C@H]1CN([C@@H](C)CO)C(=O)c2cc(NC(=O)Nc3ccc(F)cc3)ccc2O[C@H]1CN(C)S(=O)(=O)c1ccccc1
  0.3	2.9
COc1ccc2c3c(n(C)c2c1)[C@H](CO)N(C)CC31CCN(C(=O)c2ccc3c(c2)OCO3)CC1
  9.0	0.8
COc1ccc(-c2ccc3c(c2)O[C@H](CN(C)Cc2ccccc2C(=O)O)[C@H](C)CN([C@H](C)CO)S3(=O)=O)cc1
  26.6	17.6
COc1ccc2c3c([nH]c2c1)[C@@H](CO)N(Cc1ccccc1F)CC31CN(C(=O)C2CC2)C1
  12.9	19.6
CCC(=O)N(C)C[C@@H]1Oc2ncc(C#Cc3ccccc3)cc2C(=O)N([C@@H](C)CO)C[C@@H]1C
  5.9	-3.8
O=C(CN1CCOCC1)N[C@H]1CC[C@@H](CCNC(=O)C2CCCCC2)O[C@H]1CO
  2.5	-0.5
O=C(Nc1ccccc1)C1=C[C@H](C2CCCCC2)C[C@H](OCc2ccc(CO)cc2)O1
  2.1	7.7
COc1ccc(NC(=O)N(C)C[C@@H]2Oc3c(NS(=O)(=O)c4c(C)noc4C)cccc3C(=O)N([C@H](C)CO)C[C@@H]2C)cc1
  6.3	9.2
COc1ccc(CN(C)C[C@@H]2Oc3ccc(NS(=O)(=O)c4ccc(C)cc4)cc3CC(=O)N([C@H](C)CO)C[C@H]2C)cc1
  -14.3	-9.5
C[C@H](CO)N1C[C@H](C)[C@@H](CN(C)Cc2ccc(Oc3ccccc3)cc2)Oc2ccc(NC(=O)Cc3ccccc3)cc2C1=O
  -0.6	-2.7
O=C(C[C@H]1C=C[C@@H](NC(=O)Nc2cc(F)ccc2F)[C@@H](CO)O1)Nc1ccc(-c2ccccc2)cc1
  -10.3	1.6
O=C(C[C@H]1C[C@H]2c3cc(NC(=O)C4CCOCC4)ccc3O[C@H]2[C@@H](CO)O1)NCC1CC1
  7.6	3.7
CCNC(=O)Nc1ccc2c(c1)C(=O)N(C)[C@H]1CC[C@H](CC(=O)NCc3ccccc3F)O[C@H]1CO2
  -3.5	-1.1

Some of these compounds in order of molecular weight, smallest number first:
Values run as follows: Vaccinia inh	Vaccinia inh Venus
COc1ccc2c3c([nH]c2c1)[C@@H](CO)N(Cc1ccccc1F)CC31CN(C(=O)C2CC2)C1
  12.9	19.6
O=C(C[C@H]1C=C[C@@H](NC(=O)Nc2cc(F)ccc2F)[C@@H](CO)O1)Nc1ccc(-c2ccccc2)cc1
  -10.3	1.6
CCNC(=O)Nc1ccc2c(c1)C(=O)N(C)[C@H]1CC[C@H](CC(=O)NCc3ccccc3F)O[C@H]1CO2
  -3.5	-1.1

(more compounds)
Values run as follows: Vaccinia inh	Vaccinia inh Venus
O=C(Nc1ccccc1)N1CCCCN2[C@H](CO)[C@H](c3ccc(C#Cc4ccccc4)cc3)[C@@H]2C1
  ?	/
CC(=O)N(C)C[C@@H]1Oc2cc(-c3cccc(C#N)c3)ccc2S(=O)(=O)N([C@@H](C)CO)C[C@@H]1C
  26.1	17.8
C[C@H]1CN([C@@H](C)CO)C(=O)c2cccc(NC(=O)c3ccc(-c4nccs4)cc3)c2O[C@@H]1CN(C)C(=O)Nc1ccccc1
  4.2	3.6
O=C(Nc1ccccc1)N[C@H]1CC[C@@H](CCNS(=O)(=O)c2cccc(F)c2)O[C@H]1CO
  -5.5	-5.1
COc1cccc(-c2ccc3n(c2=O)C[C@@H]2[C@@H](CO)[C@H](C(=O)N(C)C)[C@H]3N2Cc2cncnc2)c1
  3.6	-1.1
CN1CCN(C(=O)[C@H]2[C@H](CO)[C@H]3Cn4c(cccc4=O)[C@@H]2N3S(=O)(=O)c2ccccc2F)CC1
  5.4	7.3
CNC(=O)C[C@H]1CC[C@H]2[C@@H](COc3ccc(NC(=O)Nc4ccccc4F)cc3C(=O)N2C)O1
  5.4	2.7
C[C@@H]1CN([C@@H](C)CO)C(=O)c2cc(NS(=O)(=O)c3ccccc3)ccc2O[C@H]1CN(C)Cc1ccncc1
  5.1	-2.2
COCC(=O)N(C)C[C@H]1Oc2ncc(C#Cc3ccncc3)cc2C(=O)N([C@@H](C)CO)C[C@@H]1C
  12.6	0.7
O=C(Nc1ccccc1)NC1(c2cn(CC(=O)N3CCN(c4ccccc4)CC3)nn2)CCCCC1
  ?	/
CNC[C@@H]1OCCCC[C@@H](C)Oc2ccc(NC(=O)CCC(F)(F)F)cc2C(=O)N([C@H](C)CO)C[C@@H]1C
  -0.8	5.4
C/C=C/c1ccc([C@H]2[C@@H](CO)N(S(C)(=O)=O)[C@@H]2CN(CC)C(C)=O)cc1
  2.6	9.4
CC(=O)N(C)C[C@H]1Oc2ncc(-c3cccc(C#N)c3)cc2C(=O)N([C@H](C)CO)C[C@@H]1C
  30.0	15.0
CN(C)CC(=O)Nc1ccc2c(c1)[C@H]1C[C@H](CC(=O)NCc3cccc(F)c3)O[C@H](CO)[C@H]1O2
  6.1	2.0
O=C(Nc1ccc2c(c1)[C@@H]1C[C@H](CC(=O)N3CCc4ccccc4C3)O[C@@H](CO)[C@@H]1O2)c1ccc2c(c1)OCO2
  -21.4	-6.3
COc1cccc(S(=O)(=O)N[C@@H]2C=C[C@H](CC(=O)NCc3ccncc3)O[C@H]2CO)c1
  15.8	19.9
C/C=C/c1ccc2c(c1)O[C@H](CN(C)Cc1ccccc1F)[C@H](C)CN([C@@H](C)CO)S2(=O)=O
  ?	/
C[C@@H]1CN([C@H](C)CO)C(=O)c2cc(NS(C)(=O)=O)ccc2O[C@H]1CN(C)C(=O)Nc1ccc(C(F)(F)F)cc1
  -1.6	7.8
COc1ccc(CN(C)C[C@@H]2Oc3ccc(NC(=O)Nc4ccc(F)cc4)cc3CC(=O)N([C@H](C)CO)C[C@@H]2C)cc1
  -25.6	-23.2
CO[C@H]1CN(C)C(=O)c2ccc(NS(=O)(=O)c3ccccc3)cc2OC[C@@H](C)NC[C@@H]1C
  18.6	13.5

Remaining list, next part
SMILES	Vaccinia inh	Vaccinia inh Venus
C[C@@H]1CN([C@@H](C)CO)C(=O)c2cccc(NS(=O)(=O)c3ccccc3)c2O[C@@H]1CN(C)C(=O)Nc1ccccc1	6.5	11.7
CN(C)CC(=O)N[C@H]1CC[C@@H](CCNC(=O)C2CCCCC2)O[C@@H]1CO	5.6	6.4
CO[C@H]1CN(C)C(=O)c2ccc(NS(=O)(=O)c3ccccc3C)cc2OC[C@H](C)N(C)C[C@@H]1C	-3.4	0.8
COCCNC(=O)C[C@H]1C[C@H]2c3cc(NC(=O)c4cccnc4)ccc3O[C@H]2[C@@H](CO)O1	3.7	6.1
COc1ccccc1NC(=O)N1CC[C@@H]2[C@H]1c1cc(-c3ccccc3)ccc1N(C)[C@@H]2CO	?	/
C[C@@H]1CCCCO[C@H](CN(C)S(=O)(=O)c2ccccc2)[C@H](C)CN([C@@H](C)CO)C(=O)c2cc(NC(=O)Cc3ccccc3)ccc2O1	-12.6	-20.9
COCC(=O)N1CC(=O)N2[C@H](CO)[C@@H](c3ccc(C#Cc4cccnc4)cc3)[C@H]2C1	11.6	13.7
C[C@H](CO)N1C[C@H](C)[C@@H](CN(C)C(=O)NC2CCCCC2)Oc2c(NC(=O)NC3CCCCC3)cccc2C1=O	3.1	9.8
Cc1ccc(S(=O)(=O)N(C)C[C@H]2Oc3ccc(NC(=O)Cn4cnnn4)cc3CC(=O)N([C@H](C)CO)C[C@H]2C)cc1	-2.5	0.4
O=C(Nc1ccccc1)N1CCCCN2[C@H](C1)[C@H](c1ccc(Br)cc1)[C@@H]2CO	-2.3	-2.9
O=S(=O)(c1ccc(F)cc1)N1C[C@@H]2[C@H](c3ccccc31)[C@H](CO)N2Cc1ccccc1Cl	-34.6	-16.5
Cc1noc(C)c1NC(=O)N(C)C[C@H]1Oc2ccc(NC(=O)C3CC3)cc2C(=O)N([C@H](C)CO)C[C@H]1C	-3.4	-8.6
OC[C@H]1[C@H](c2ccc(-c3ccccc3)cc2)[C@H]2CN(CCC(F)(F)F)CCCCN21	-22.6	-23.1
C[C@@H]1CN([C@@H](C)CO)C(=O)c2cc(NS(=O)(=O)c3cccs3)ccc2O[C@@H](C)CCCCO[C@H]1CN(C)C(=O)c1ccccc1	2.5	-0.3
C[C@@H]1CN([C@@H](C)CO)C(=O)c2cc(NC(=O)C3CCCCC3)ccc2O[C@H]1CN(C)Cc1ccc(C(=O)O)cc1	14.1	8.7
C[C@H](CO)N1C[C@H](C)[C@H](CN(C)Cc2cccnc2)OCc2cn(nn2)CCCC1=O	9.6	17.6
O=C(Nc1cccc(F)c1)N1CC(=O)N2[C@H](CO)[C@H](c3ccc(-c4cccc(F)c4)cc3)[C@@H]2C1	?	/
C[C@@H]1CCCCO[C@H](CN(C)C(=O)Nc2ccc(F)cc2)[C@@H](C)CN([C@H](C)CO)C(=O)c2cc(NS(=O)(=O)c3cccs3)ccc2O1	3.8	-4.8
C[C@@H]1CN([C@@H](C)CO)S(=O)(=O)c2ccc(-c3cccnc3)cc2O[C@H]1CN(C)C	9.4	11.2
C[C@@H]1CN([C@H](C)CO)C(=O)Cc2cc(NC(=O)NC3CCCCC3)ccc2O[C@@H]1CN(C)C(=O)Nc1ccccc1	14.6	3.8

A second format for three compounds above:
Structure: C[C@@H]1CN([C@@H](C)CO)C(=O)c2cc(NC(=O)C3CCCCC3)ccc2O[C@H]1CN(C)Cc1ccc(C(=O)O)cc1
  Vaccinia inh: 14.1
  Vaccinia inh Venus: 8.7
Structure: C[C@H](CO)N1C[C@H](C)[C@H](CN(C)Cc2cccnc2)OCc2cn(nn2)CCCC1=O
  Vaccinia inh: 9.6
  Vaccinia inh Venus: 17.6
Structure: O=C(Nc1cccc(F)c1)N1CC(=O)N2[C@H](CO)[C@H](c3ccc(-c4cccc(F)c4)cc3)[C@@H]2C1
  Vaccinia inh: ?
  Vaccinia inh Venus: /

Going on with the list:
SMILES	Vaccinia inh	Vaccinia inh Venus
C[C@H]1CN([C@@H](C)CO)C(=O)c2cccc(NC(=O)C3CC3)c2O[C@@H]1CN(C)Cc1ccc(-c2ccccc2)cc1	-26.6	-16.3
N#C[C@@H]1N[C@H](CO)[C@H]1c1ccc(-c2ccccc2F)cc1	9.6	-0.2
COc1ccc2c3c([nH]c2c1)[C@@H](CO)N(C(=O)Nc1cccc(F)c1)CC31CCN(CC2CC2)CC1	?	/
C[C@@H]1CN([C@@H](C)CO)C(=O)c2cccc(NC(=O)NC3CCCCC3)c2O[C@H]1CN(C)Cc1ccc(C(F)(F)F)cc1	-13.9	-17.1
C[C@@H](NC(=O)C[C@H]1CC[C@H](NC(=O)C2CCC2)[C@H](CO)O1)c1ccccc1	5.8	5.6
CCCN(C)C[C@H]1OCCCC[C@@H](C)Oc2ccc(NS(C)(=O)=O)cc2C(=O)N([C@@H](C)CO)C[C@H]1C	-3.1	6.8
COc1ccc(NC(=O)Nc2ccc3c(c2)C(=O)N([C@H](C)CO)C[C@H](C)[C@@H](CN(C)S(C)(=O)=O)OCCCC[C@H](C)O3)cc1	6.1	-3.5
CCS(=O)(=O)N1CC(=O)N2[C@H](CO)[C@@H](c3ccc(C#CCC4CCCC4)cc3)[C@@H]2C1	?	/
N#C[C@H]1[C@H](c2ccccc2-c2ccc(F)cc2)[C@H](CO)N1C(=O)Cc1ccccc1	18.8	18.8
CC(C)NC(=O)N(C)C[C@@H]1Oc2ccc(NC(=O)c3ccncc3)cc2CC(=O)N([C@@H](C)CO)C[C@@H]1C	18.6	5.2
CC(C)C#Cc1ccc2c(c1)O[C@@H](CN(C)C(=O)C1CC1)[C@@H](C)CN([C@H](C)CO)S2(=O)=O	9.3	3.4
CO[C@@H]1CN(C)C(=O)c2cc(NS(=O)(=O)c3ccc(Cl)cc3)ccc2OC[C@H](C)N(C)C[C@H]1C	19.1	11.7
COc1cccc(CN2CC3(CCN(S(C)(=O)=O)CC3)c3c(n(C)c4cc(OC)ccc34)[C@@H]2CO)c1	6.8	8.9
N#C[C@H]1[C@H](c2ccc(-c3cccc(F)c3)cc2)[C@@H](CO)N1C(=O)CN1CCOCC1	-5.0	-13.6
CO[C@H]1CN(C)C(=O)c2cc(NC(=O)c3cccc(F)c3)ccc2OC[C@@H](C)N(CC2CC2)C[C@H]1C	-7.6	-4.5
COc1ccccc1C(=O)Nc1ccc2c(c1)C(=O)N(C)C[C@H](OC)[C@H](C)CN(CC1CC1)[C@@H](C)CO2	4.7	-0.5
